BasE inh – inhibitors of Acinetobacter baumannii siderophore enzyme BasE | inhibition, % (no concentration beside the values) | hit rate 0.1% among 84,000 | purified BasE, fluorescence polarization binding displacement | AID 485350;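 active = both replicates above 25% with normal brightness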;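 also: 0% = negative plate control signal and 100% = positive plate control signal; stock transfer was 100 nL into about 30 µL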
LANA-nucl inh – inhibitors of KSHV LANA binding to nucleosomes; FITC-LANA1-23 / chicken nucleosome fluorescence polarization; stronger effect = lower value; z-score (concentration not given with the values); hit rate 0.3% among 51,000; AID 720717;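 active = both repeat wells score below -2 in polarization z-score versus plate sample wells, excluding overly bright wells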;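 also: 100 nL library stock added to about 30 µL; numbers are from one replicate; some results filed as inactive read as strong as hits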
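System – purified chicken nucleosomes with FITC-labelled LANA N-terminal peptide (1-23) · Amount – 240 nM purified chicken nucleosomes (480 nM peptide binding sites), final · Also added – 50 nM FITC-LANA1-23 probe · Medium – TEN-BT buffer, pH 7.5 · Incubation – compound with peptide–nucleosome mix 10–45 min at room temperature · Detection – fluorescence polarization, ex 480 nm, em 535 nm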
Active calls of the source: *; . = no result given; & = joins results of further samples. An excerpt; the hit share may differ from the screen's.

SMILES	BasE inh	LANA-nucl inh
CC1(C)c2ssc(=S)c2-c2ccccc2N1C(=O)CSC#N	3.5	-1.18
O=C(/C=C/c1ccc(F)cc1)NC1=NCCS1	2.0	.
COC(=O)Nc1scc2c1c(=O)oc1ccccc12	0.5	0.432
Cc1ccc(-n2nc3c(c2NC(=O)c2ccccc2)CSC3)cc1	2.0	0.5
C=CCN1C(=O)/C(=N\N=C\c2ccc(C)s2)c2ccccc21	1.8	.
COC(=O)c1sccc1NC(=O)C1CCCS1 (stereo not given)	1.9	.
Cc1ccc(Cl)cc1NC(=O)C1=NCCN1	1.8	.
OC1CCOc2ccccc21 (stereo not given)	0.8	-0.0595
Ic1ccc2c(-c3ccccc3)onc2c1	1.9	0.458
CN(C)CCOC(c1ccc(Cl)cc1)c1ccccn1 (stereo not given)	2.6&-2.6	1.12&-0.222&-0.674
CCCCn1ccnc1C(=O)c1ccc(S(=O)(=O)N2CCCC2)cc1	1.8	.
CN1C(=O)NC2NC(=O)N(C)C21 (stereo not given)	1.7	0.101
O=C(CCn1nc(-c2ccccc2)c2ccccc2c1=O)Nc1cccnc1	-6.1	2.77
O=C1CCCc2cc(S(=O)(=O)NCC3CCC(C(=O)N4CCCCCC4)CC3)ccc2N1 (stereo not given)	-1.7	.
Cc1cc(C)c2c(NS(=O)(=O)c3ccc(Cl)cc3)n[nH]c2n1	1.0	.
CCOCc1c(C(=O)N(CC)Cc2ccc3c(c2)OCCO3)oc2ccccc12	-5.0	.
O=C(CSc1nnc(NC(=O)C23CC4CC(CC(C4)C2)C3)s1)Nc1nccs1	0.2	0.404
CC(C)(C)c1ccc(CCCNCCN2CCNCC2)cc1	0.0	.
O=S(=O)(NC1CC1)c1ccc(S(=O)(=O)N(Cc2ccccn2)C2CC2)cc1	-1.6	-0.0775
Cn1c(=S)sc2ccccc21	-3.3	-0.121
COc1ccc(Cc2nnc(Nc3c(C)cccc3C)o2)cc1OC	2.5	0.118
CC(NC(=O)CSc1n[nH]c(=O)n1C1CC1)C12CC3CC(CC(C3)C1)C2 (stereo not given)	0.6	.
CC1CCCCN1C(=O)Cc1coc2ccc3ccccc3c12 (stereo not given)	0.4	.
CNCc1n[nH]c2c1CCCC2	-14.3	-0.515
C[N+]1(CC(O)c2ccccc2)CCCCCC1 (stereo not given)	0.7	.

Filtered by structure: the compounds so far containing a halogen (five)
SMILES	BasE inh	LANA-nucl inh
O=C(/C=C/c1ccc(F)cc1)NC1=NCCS1	2.0	.
Cc1ccc(Cl)cc1NC(=O)C1=NCCN1	1.8	.
Ic1ccc2c(-c3ccccc3)onc2c1	1.9	0.458
CN(C)CCOC(c1ccc(Cl)cc1)c1ccccn1 (stereo not given)	2.6&-2.6	1.12&-0.222&-0.674
Cc1cc(C)c2c(NS(=O)(=O)c3ccc(Cl)cc3)n[nH]c2n1	1.0	.

Further results.
SMILES	BasE inh	LANA-nucl inh
CC(=O)NCc1ccc(C(=O)CSc2nc3c(Cl)cc(Cl)cc3[nH]2)o1	-0.4	.
O=C(NCc1ccccc1)N1CCn2cccc2C1c1ccccc1 (stereo not given)	0.1	1.17
CC(C)(O/N=C(\C(=O)N[C@@H]1C(=O)N2C(C(=O)[O-])=C(C[n+]3ccccc3)CSC12)c1csc(N)n1)C(=O)O (stereo not given in full)	.	-1.13
Oc1cccc(Nc2nc3ccc(Cl)cc3n3cnnc23)c1	-0.5	0.0815
Cn1c(=O)[nH]c(=O)c2c1nc(NCCN1CCOCC1)n2CC(O)c1ccccc1 (stereo not given)	1.6	-1.57
O=c1[nH]ncc(N/N=C\C2CC=CCC2)c1Cl (stereo not given)	-4.4	0.694
CC(C)Cn1cnc2c1c(=O)n(CC(=O)NCc1ccc(F)cc1)c(=O)n2CC(C)C	-0.4	.
S=c1nn[nH]n1C1CCCCCCC1	1.4	.
COc1ccc(C2=NC(CO)(CO)CO2)cc1	-0.8	-1.26
CN(C)S(=O)(=O)n1cc(/C=C(\NC(=O)c2ccccc2F)C(=O)NCc2ccco2)c2ccccc21	0.5	-1.09
C=CCn1c(CC(C)C)nnc1SCC(=O)Nc1ccc(OC)cc1	-1.7	0.242
N#Cc1cccnc1NNC(=O)Nc1ccc(OCc2ccccc2)cc1	1.5	-0.517
CCn1c(N2CCN(S(C)(=O)=O)CC2)nc2ccccc21	-0.6	-1.42
Cc1ccc2c(c1)C(=O)C1(O)CCN(c3ccccc3)C1=N2 (stereo not given)	1.9	1.08
COc1ccc(NS(=O)(=O)c2ccc(OCC(F)(F)F)c(C#N)c2OCC(F)(F)F)cc1	1.2	.
N#Cc1c(-n2cccc2/C=N/NC(N)=S)sc2c1CCCC2	-2.5	0.213
CN1CCC(N(C)C(=O)CNC(=O)c2ccc(C(C)(C)C)cc2)CC1	-0.1	.
CC(=O)Nc1ccc2c(COC(=O)c3ccc(-n4cnnn4)cc3)cc(=O)oc2c1	2.2	.
O=C(c1ccccc1Nc1ccc(SC(F)F)cc1)N(CCO)CCO	-3.5	.
CC1CCCC/C1=N\NC(=S)Nc1ccccc1 (stereo not given)	1.2	.
c1ccc(NC2CCCCC2)nc1	1.3	.
CCN(CC(=O)NCc1ccc(Cl)cc1)Cc1nnc(-c2ccc(F)cc2)o1	0.5	.
CC1(C)CC(=O)c2sc(N)nc2C1	0.8	-1.15
COc1c(Cl)cc(CO)cc1Cl	3.2	-0.572
CCCCn1c(SCC(=O)N(CC)C2CCS(=O)(=O)C2)nnc1C(CC)N(C)C (stereo not given)	0.1	.
(more compounds)
SMILES	BasE inh	LANA-nucl inh
CCCCOc1ccc(C(C)(C#N)CC#N)cc1 (stereo not given)	4.5	0.353
CN1CCc2c(OCc3ccc(Cl)cc3)cccc2C1=O	1.4	-0.892
Cc1cccc(N2CCN(CN3C(=O)C4(OCCCO4)c4ccccc43)CC2C)c1 (stereo not given)	2.5	0.22
CC(SC1=N/C(=C\c2ccco2)C(=O)N1c1ccc(OC(F)F)cc1)C(=O)NCc1ccc2c(c1)OCO2 (stereo not given)	-1.1	.
CN(C)c1cccc(C(=O)NN)c1	2.4	.
c1cncc(Oc2nc(CN3CCOCC3)nc3sc4c(c23)CCC4)c1	-1.0	.
CC(=O)NS(=O)(=O)c1ccc(NC(=O)c2ccc(C)c(C)c2)cc1	2.3	0.028
CCOc1ccc(-n2c(SCC)nc3c(c2=O)SCC3)cc1	1.6	0.834
CCOC(=O)C1=C(C)NC(C)=C(C(=O)OCC)C1C(=O)OC(C)C(=O)Nc1ccc(S(=O)(=O)N2CCCC2)cc1 (stereo not given)	-1.1	.
NC(=O)CN1C(=O)c2ccccc2C1=O	1.9	.
Cc1cc(Br)ccc1NC(=O)CN1CCOCC1	.	-0.839
NC(=O)/C(=C\c1ccco1)NC(=O)c1ccco1	4.3	0.0405
COc1ccc(NC(=O)C(Cc2ccccc2)NC(=O)c2ccco2)cc1OC (stereo not given)	1.2	-0.782
CCOC(=O)C1=NOC2C(=O)N(c3ccc(Cl)cc3)C(=O)C12 (stereo not given)	1.4	-0.296
O=C(N/N=C/c1cccnc1)c1nc2ccccc2c(=O)[nH]1	1.5	.
CN(C)S(=O)(=O)c1cccc(-c2nnc3n2CCCCC3)c1	-6.0	.
O=c1[nH]cc(COCC(F)(F)C(F)F)c(=O)[nH]1	0.1	-0.405
N#Cc1c(NC(=O)CSc2ncccn2)sc2c1CCCC2	6.4	-0.376
CC(CN1CCOCC1)OC(=O)C(C)(c1ccccc1)c1ccccc1 (stereo not given)	2.5	0.222
CN1/C(=C\C(=O)CN2CCc3ccccc3C2)C(C)(C)c2ccccc21	0.0	.
O=C(CSc1nc2ccccc2[nH]1)n1c2ccccc2c2ccccc21	-2.9	.
N#Cc1c(NC(=O)NCc2ccco2)sc2c1CCC2	-1.2	1.45
CC(C)Nc1ncnc2onc(-c3ccc(F)cc3)c12	-0.6	.
COc1ccc(C2=NN(C(=O)COc3ccccc3C(N)=O)C(c3ccco3)C2)cc1 (stereo not given)	3.5	.
CCN(CC)S(=O)(=O)c1ccc(NC2CCN(Cc3ccccc3)CC2)nc1	2.0	.

An excerpt of these results, comma-delimited.
SMILES,BasE inh,LANA-nucl inh
COC(=O)c1sccc1NC(=O)C1CCCS1 (stereo not given),1.9,.
OC1CCOc2ccccc21 (stereo not given),0.8,-0.0595

Next section:
SMILES	BasE inh	LANA-nucl inh
Cc1ccc(O)c(-c2cc(C(F)(F)C(F)(F)F)nc(-c3ccccc3)n2)c1	0.9	.
CS(=O)(=O)c1cccc(S(=O)(=O)NCc2cccnc2)c1	-1.5	1.77
COc1ccc(C2(C(=O)NCc3ccco3)CCCC2)cc1OC	0.7	.
CN(Cc1ccccc1)C(=O)C1CCN(c2nc3cccnc3s2)CC1	1.7	-0.705
COc1cc(/C=N/NC(=O)c2cc(C)n(-c3ccc(F)cc3)c2C)ccc1OC(=O)c1ccco1	1.1	.
COCCSc1ccccc1C(=O)N1CCOCC1	1.9	-0.619
CCCCC[C@H](O)/C=C/[C@@H]1[C@@H](C/C=C\CCCC(=O)O)[C@H]2CO[C@@H]1C2	-1.3	-0.579
CNC(=O)NC(=O)CSc1nnc(Nc2ccccc2C)s1	-1.0	.
CNC(=O)c1cc(Cl)ccc1OC	-0.6	0.728
N#CC(C(=O)C12CC3CC(CC(C3)C1)C2)c1nc2ccccc2[nH]1 (stereo not given)	1.7	.
CCOC(=O)N1CCC(NS(=O)(=O)c2ccc3[nH]c(=O)ccc3c2)CC1	2.0	-0.172
COc1cc(C(=O)n2nc(N)c3cc4ccc(C)cc4nc32)cc(OC)c1OC	1.2	-1.13
O=C(COC(=O)CCc1c[nH]c2ccccc12)Nc1cccc2nsnc12	3.2	.
COC(=O)c1ccc(C(=O)OC)c(S(=O)(=O)N(C)Cc2ccco2)c1	0.6	.
Fc1ccc(-c2onc3ccc(-c4ccn[nH]4)cc23)cc1	.	-0.822
O=C(Cc1ccccc1)NCc1cccs1	-0.7	.
C[C@H]1COc2c(C3(N)CC3)c(F)cc3c(=O)c(C(=O)O)cn1c23	.	-0.114&0.385
COCCn1c(C)cc(/C=N/n2c(C)nc3ccccc3c2=O)c1C	1.8	.
CCCNC(=O)c1ccc(NC(=O)N2CCSc3nc(C)cc(C)c32)cc1	-1.2	.
CCN(CC(=O)N1CCc2ccccc2C1)S(=O)(=O)c1ccc(OC)cc1	-2.1	0.565
O=C(N/N=C1\CCc2ccccc21)c1cc(-c2ccco2)nc2ccccc12	1.0	.
COc1ccc(-c2oc3ncn(Cc4ccccc4)c(=N)c3c2-c2ccc(OC)cc2)cc1	-1.4	.
CC(=O)Nc1c(I)cc(I)c(C(=O)O)c1I	3.4	1.04&-0.418
Cc1ccccc1NC1SC(=O)N(Cc2ccccc2)C1=O (stereo not given)	-4.6	.
COc1ccc(OC)c2sc(NC(=O)c3ccc4ncsc4c3)nc12	2.3	0.417
The listing continues:
SMILES	BasE inh	LANA-nucl inh
Cc1ccccc1CN	0.6	.
Cc1ccc(C(=O)/C=C/Sc2nccc(C)n2)cc1	4.3	0.425
CC1CN(C(=O)CC(c2ccccc2)c2ccccc2)CC(C)O1 (stereo not given)	-0.6	-0.23
CNC(=O)CC1C(=O)N(C)C(=S)N1NC(=O)c1ccc(Cl)cc1 (stereo not given)	1.6	0.078
O=c1c2ccccc2nnn1CSc1nnc(CN2CCCC2)n1Cc1ccccc1	0.7	.
Cc1cc(N2CCC(C(=O)NC3CC3)CC2)n2nc(C)c(-c3ccc(Cl)cc3)c2n1	1.6	0.43
CCOC(=O)c1csc(N2CCc3ccccc32)n1	-1.3	1.67
Cc1cc(OCC(=O)c2cc(C)n(-c3nccs3)c2C)ccc1Cl	1.8	.
CC(C)(O)CNC(=O)C(Cc1ccccc1)N1C(=O)c2ccccc2C1=O (stereo not given)	-0.3	.
O=C(CSc1ncnc2c1oc1ccccc12)Nc1cccc2ccccc12	-0.8	-0.277
CCOC(=O)c1c(S(=O)(=O)Nc2ccc(OC)c(Cl)c2)c(C)n(C)c1C	-0.9	.
Cn1/c(=N/NC(=O)C2=NN(c3ccccc3)C(=O)CC2)sc2ccccc21	2.7	.
O=C1/C(=C\c2cccs2)SC(=S)N1CC1CCCO1 (stereo not given)	0.5	0.352
Nc1c(N(C(=O)CC2OC(=O)c3ccccc32)C2CCCC2)c(=O)[nH]c(=O)n1Cc1ccccc1 (stereo not given)	0.1	.
CCS(=O)(=O)c1ncc(Cl)c(C(=O)NCCc2ccc(OC)c(OC)c2)n1	-0.4	0.991
Cc1cc(C)cc(OCC(=O)OCc2nnc(-c3ccccc3)o2)c1	-1.8	.
O=C1c2ccccc2C(=O)c2c1ncn2-c1ccccc1	0.7	.
O=C(OCn1nnc2ccccc2c1=O)C1CCN(S(=O)(=O)c2cccs2)CC1	-1.2	.
O=C1NC(c2ccccc2)Nc2c1sc(=S)n2-c1ccccc1 (stereo not given)	1.9	-0.214
C=CCn1c(SCCC(=O)NCc2ccc3c(c2)OCO3)nc2scc(-c3ccco3)c2c1=O	-3.0	0.231
CN1CCN(/N=C/c2sc(Nc3ccccc3)nc2Cl)CC1	-17.3	.
O=S(=O)(/C=C/c1ccccc1)N1CCN(c2ccc(S(=O)(=O)N3CCCCC3)cn2)CC1	2.6	.

Ordered by the number under LANA-nucl inh (low to high): 5 of the compounds above
compound	LANA-nucl inh
O=C(CSc1ncnc2c1oc1ccccc12)Nc1cccc2ccccc12	-0.277
CNC(=O)CC1C(=O)N(C)C(=S)N1NC(=O)c1ccc(Cl)cc1 (stereo not given)	0.078
Cc1ccc(C(=O)/C=C/Sc2nccc(C)n2)cc1	0.425
Cc1cc(N2CCC(C(=O)NC3CC3)CC2)n2nc(C)c(-c3ccc(Cl)cc3)c2n1	0.43
CCS(=O)(=O)c1ncc(Cl)c(C(=O)NCCc2ccc(OC)c(OC)c2)n1	0.991

Compound activity: PubChem, ICCB-Longwood Screening Facility, Harvard Medical School
